Screening results deposited in PubChem BioAssay by several laboratories.
Calb FLC: C. albicans growth modulation with fluconazole; C. albicans CaCi-2 (fluconazole-resistant clinical isolate) + fluconazole, Alamar Blue growth, 48 h; AID 1979; actives 0.57% (n = 300,000); growth inhibition, % (test concentration not listed);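 active = most replicates above 75%; inconclusive = exactly half above 75%; inactive = most below 75%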;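 also: all wells also contain fluconazole at 8 µg/ml as a sub-toxic cotreatment; 0% = median of DMSO wells and 100% = median of geldanamycin control wells; wells of about 8 µL received 7.5 nL stock; the first replicate is given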
Vif TR-FRET: HIV-1 Vif–A3G interaction blockers – biochemical, TR-FRET, GST-Vif 1-94, biotin-A3G peptide, dose response retest, primary screen (AID 1117319). TR-FRET GST-Vif / biotin-A3G peptide binding; higher % means a stronger effect; test concentration not given here; strong numbers were not always called active. one-dose inhibition, %; IC50 in µM for titrated hits. actives 0.57% (n = 260,000);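 active = above the screen mean plus three standard deviations and confirmed in dose response; inconclusive = results disagree or hit not tested in dose response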;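 also: Vif residues 1-94 fused to GST binding biotinylated APOBEC3G peptide 110-148; 0% = full assay without inhibitor and 100% = GST in place of GST-Vif; retest series ran down from 100 µM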
RanGTP-Impb inh: disruptors of Ran-importin-beta complex formation – biochemical, FRET, CFP-Ran, YFP-importin-beta, homogeneous, primary screen; cell-free CFP-Ran/YFP-importin-beta FRET ratio; inhibition, % (no concentration beside the values); actives 1.1% (n = 300,000); AID 2216;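 active = most replicates above 15%; inconclusive = exactly half above 15%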;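 also: 0% = DMSO wells and 100% = Ran loaded with GDP instead of GTP; wells of about 40 µL received 100 nL stock; the first replicate is given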
T cruzi inh: blocks replication of Trypanosoma cruzi. actives 1.4% (n = 300,000). T. cruzi beta-gal in NIH3T3, luminescence, 90 h. inhibition, % (concentration not given with the values);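 active = mean inhibition across valid replicates above about 55%, limit read from the data; inconclusive = mean below that limit but half or more replicates reach it; inactive = mean below it, under half of replicates reach it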;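 also: signal also drops with host cell toxicity which is not excluded here; 0% = plate median of DMSO wells and 100% = zero luminescence signal; higher percent means less beta-gal luminescence so fewer parasites; stock transfer was 50 nL into about 50 µL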
AF4-AF9 inh: inhibitors of human MLL-AF4/AF9 interaction; P42568; AlphaScreen, biotin-AF4 peptide binding to FLAG-AF9; inhibition, % at 10 µM; actives 0.47% (n = 350,000); AID 651704;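 active = every replicate reaching a set inhibition limit, whatever the replicate mean, cut at about 25% in these data; inconclusive = mean inhibition reaches that limit but some replicates miss it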;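 also: 0% = plate neutral control median and 100% = total signal loss; the record names both 10 and 1 µM as test concentration; the first replicate is given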
Target sequence (P42568 whole entry, looked up): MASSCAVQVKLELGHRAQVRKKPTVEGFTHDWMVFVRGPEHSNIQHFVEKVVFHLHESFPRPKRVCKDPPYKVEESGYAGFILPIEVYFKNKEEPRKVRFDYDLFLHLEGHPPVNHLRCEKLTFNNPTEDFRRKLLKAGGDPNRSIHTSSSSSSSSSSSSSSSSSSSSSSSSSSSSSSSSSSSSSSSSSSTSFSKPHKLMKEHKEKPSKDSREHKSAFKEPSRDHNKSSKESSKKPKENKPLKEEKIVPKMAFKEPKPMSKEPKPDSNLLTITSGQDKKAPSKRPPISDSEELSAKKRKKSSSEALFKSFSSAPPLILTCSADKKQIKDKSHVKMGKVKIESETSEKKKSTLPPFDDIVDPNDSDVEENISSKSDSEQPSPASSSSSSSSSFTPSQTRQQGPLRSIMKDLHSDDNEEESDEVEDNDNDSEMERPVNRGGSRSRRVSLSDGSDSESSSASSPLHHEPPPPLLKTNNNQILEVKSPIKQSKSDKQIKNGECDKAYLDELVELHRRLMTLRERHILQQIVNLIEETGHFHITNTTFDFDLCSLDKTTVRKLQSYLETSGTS
A1 inh: inhibitors of the anti-apoptotic protein A1, read as caspase activation; actives 0.066% (n = 330,000); AID 2462; caspase activation, % (test concentration not listed); MEF A1-2A-BIM cells, Caspase-Glo 3/7 luminescence, 3 h; percent of clofoctol response, vehicle zero;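 active = over half of replicate activation scores above 10%, or exactly half above 10 with the replicate mean above 10; inconclusive = replicate mean below 10 yet half the replicates above 10; inactive = over half of replicates below 10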;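 also: wells of about 30 µL received 50 nL stock; many hits fall short of the cut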
Ecoli rRNA inh: inhibits bacterial ribosomal RNA function over humanized ribosomes; E. coli WT GFP vs humanized-ribosome RFP mutants, fluorescence, 24 h; hits give low values; DMSO median 0, no signal -100; GFP signal change (wild-type ribosome), % (no concentration beside the values); actives 1.6% (n = 350,000); AID 720706;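 active = significant combined selectivity score with lowered wild-type GFP, culture density cut under 30%, mutant RFP and density less affected; inactive = any of these conditions unmet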; also: one replicate is shown; some compounds called inactive have numbers as strong as hits
Beta cell apopt: blocks beta cell apoptosis. INS-1E cytokine-induced death, ATP luminescence, 48 h; percent of positive-control rescue, neutral wells zero. protection from apoptosis, % (concentration not given with the values). actives 0.8% (n = 300,000). AID 435005;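 active = all replicates at 75% or more, or half of them and the mean; inconclusive = half reach 75% but not the mean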;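 also: 0% = cytokine-treated negative control wells and 100% = positive control rescue; higher means more ATP so stronger rescue from cytokine killing; wells of about 40 µL received 100 nL stock; the first replicate is given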
Ecoli rRNA inh OD600: second read-out of Ecoli rRNA inh, no call of its own (marks repeat the call); OD600 change, %; measured here: OD600 growth;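 optical density of the mix in the first replicate; 0 = DMSO median and -100 = no signal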
Ecoli rRNA inh RFP: recorded beside Ecoli rRNA inh, whose call it bears; RFP signal change, %; measured here: RFP humanized mutant strains;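 first replicate; 0 = DMSO median and -100 = no signal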
Numbers without * were called inactive; u = inconclusive; x = not tested or not shown; & = joins results of further samples. A portion of the library; the hit share may differ from the screen's.

SMILES	Calb FLC	Vif TR-FRET	RanGTP-Impb inh	T cruzi inh	AF4-AF9 inh	A1 inh	Ecoli rRNA inh	Ecoli rRNA inh OD600	Ecoli rRNA inh RFP	Beta cell apopt
COc1cccc(CNC(=O)CCNS(=O)(=O)c2ccc(C)cc2)c1	-4	5%	u	-3	-1.5	-0.8	1	7	-0.7	-6
CCOc1cc(CNn2cnnc2)cc(Br)c1OCC(=O)NC(C)(C)C	0	x	-2.0	-2	-7.0	0.5	5	4	1.5	-6
O=Cc1ccc2noc(-c3ccc(Cl)cc3)c2c1	15	13%	11	-1	11	0.4	-6	8	8.8	-6
Cc1ccc(/C=N/NC(=O)c2ccco2)cc1	3	-1%	-3.3	-17	-5.2	-7.5	6	-15	1.5	-1
O=C(c1cn(-c2ccccc2)nc1-c1cccs1)N1CCN(c2ccccn2)CC1	58	4%&-8%	0.4	4	x	-0.4	x	x	x	-2
CCCNC(=O)COC(=O)c1ccccc1C(=O)c1ccc(Cl)c([N+](=O)[O-])c1	-14	-8%	-0.3	32	-0.2	-0.5	5	10	-1.2	-13
O=C1c2ccccc2COc2ccc(O)cc21	-12	20%	-0.9	-12	x	2.8	x	x	x	x
Cc1cc2c(c(N3CCOCC3)n1)C(=O)OC2	-6	5%	5.0	-14	x	0.3	x	x	x	1
O=C(NC(=O)N1CCCC1)c1csnn1	-6	-1%	2.2	5	-6.7	0.1	10	8	-2.3	-7
Cc1ccc(-c2nc(-c3cccnc3)no2)cc1	2	2%	5.2	-7	x	-6.4	x	x	x	-5
NC(=O)c1ccsc1NC(=O)CSc1nnc(NC2CC2)s1	x	1%	x	x	-2.7	-0.1	x	x	x	-9
Cc1ccc(OCC(=O)Nc2cccc3c2CCCC3)cc1C	-2	7%	5.2	-16	x	-1.7	x	x	x	0

Next section (three carried over from the part before).
SMILES	Calb FLC	Vif TR-FRET	RanGTP-Impb inh	T cruzi inh	AF4-AF9 inh	A1 inh	Ecoli rRNA inh	Ecoli rRNA inh OD600	Ecoli rRNA inh RFP	Beta cell apopt
Cc1ccc(-c2nc(-c3cccnc3)no2)cc1	2	2%	5.2	-7	x	-6.4	x	x	x	-5
NC(=O)c1ccsc1NC(=O)CSc1nnc(NC2CC2)s1	x	1%	x	x	-2.7	-0.1	x	x	x	-9
Cc1ccc(OCC(=O)Nc2cccc3c2CCCC3)cc1C	-2	7%	5.2	-16	x	-1.7	x	x	x	0
Cc1ccc(Cn2nnc3c(=O)n(CC(=O)NCc4ccccc4)cnc32)cc1	-13	-4%	x	-18	-2.3	-0.3	9	10	2.1	9
CCOCCc1nnc(NC(=O)Cc2c(F)cccc2Cl)s1	2	-3%	3.7	-13	-1.8	0.1	16	15	1.7	-1
COc1ccc(CN(C)CC(=O)Nc2ccccc2C(=O)NC2CC2)cc1F	x	x	x	x	0.4	-1.0	-6	-11	-1.2	-9
CCCCCCOc1ccc(/C=C/C(=O)N2CCOCC2)cc1OC	18	x	-2.5	-1	0.9	0.1	-12	-11	-3.5	-1
CCc1nccn1S(=O)(=O)c1cc(OC)ccc1OC	3	9%	-0.7	6	-2.9	2.3	5	8	-0.3	-2
Oc1ccc(N=Nc2ccc3c(c2)OCCO3)c2cccnc12	100*	x	2.9	83*	5.2	-4.0	4	9	4.6	x
CCN(C(=O)COC(=O)c1c(C)c(-c2ccccc2)nc2ccccc12)C1CCS(=O)(=O)C1 (stereo not given)	11	-4%	5.6	0	-0.6	-0.1	-18	-7	1.1	9
Cc1c(NC(=S)NC(NC(=O)C(C)C)C(Cl)(Cl)Cl)c(=O)n(-c2ccccc2)n1C (stereo not given)	-12	9%	8.0	-22	x	-0.3	x	x	x	-9
CCc1ccc2nc(/N=C(\N)NC(=O)c3ccccc3)nc(C)c2c1	-6	-13%	-2.2	14	-2.6	-0.9	x	x	x	-1
COc1cccc(-n2c(O)c(C=NCc3ccccn3)c3ccccc3c2=O)c1	-8	x	-0.4	22	0.8	0.3	5	11	-1.0	-5
CC(=O)c1cccc(NC(=O)CN2C=NS(=O)(=O)c3ccc(C)cc32)c1	-14	x	-4.1	-3	-11	0.5	3	14	-11	0
CN(C)CCCn1c2c(c(SCC(=O)Nc3ccc4c(c3)OCO4)nc1=O)CCCC2	-3	-1%	-1.2	15	3.9	0.5	5	2	0.3	-3
O=C(NCc1ccc(Cl)s1)C1CCC(=O)N(CCc2cccc(F)c2)C1 (stereo not given)	12	-1%	0.1	9	-0.5	-0.5	-16	-14	-0.5	0
COc1ccc(Cl)cc1-c1nc(SCC(=O)N(C)C)n[nH]1	-7	4%	-2.1	-23	1.1	-1.3	-8	-2	-2.4	-1
O=C1c2cccc3cccc(c23)C(=O)N1CC1CCN(CC(O)COc2ccc3ccccc3c2)CC1 (stereo not given)	-5	x	4.2	66*	0.3	-0.5	-51	-81	-28	70
O=C(NCCc1ccccc1)c1cccc(S(=O)(=O)NCc2ccccc2)c1	-5	-1%	-1.8	8	-1.3	1.3	-22	-26	-6.6	3
CN(C(=O)c1cc(-c2ccccc2)on1)C1CCCCC1	7	x	-2.3	20	-1.3	-0.5	-4	-17	0.8	3
CCOC(=O)c1cc(NC(=O)c2cccnc2)cc(C(=O)OCC)c1	-3	2%	-5.9	-1	x	-0.1	x	x	x	2
O=S(=O)(c1cccc(S(=O)(=O)N2CCOCC2)c1)N1CCCCCC1	-3	x	-2.4	-1	-4.0	-0.3	8	0	1.2	3
CSc1nc2ccccc2s1	-3	x	-1.8	-4	-2.4	-0.6	5	14	9.2	1
COc1ccc(C(=O)NCC(C)CN(C)C)cc1 (stereo not given)	-18	21%	-1.6	0	x	u	x	x	x	-12
O=C(CN(c1ccccc1F)S(=O)(=O)c1ccccc1)N1CCCCCC1	-2	-5%	3.1	-2	x	0.1	x	x	x	-7
CCOC(=O)C(=CNc1cc(C)ccc1C)C(=O)OCC	17	0%	-1.3	-13	x	0.4	x	x	x	-21
O=[N+]([O-])c1cccc(S(=O)(=O)N2CCCCCC2)c1	1	2%	-1.2	13	x	0.7	x	x	x	-21
COc1ccc(C(=O)N/C(=C\c2ccccc2)C(=O)Nc2ccc(C(=O)O)cc2)cc1	0	1%	-17	-15	0.4	0.4	-5	-3	1.6	-2
CCn1cc(CNC(=O)C2CCC(=O)N(Cc3ccccc3F)C2)cn1 (stereo not given)	-1	x	4.6	-9	-6.3	0.4	28	21	1.7	-5
Cc1ccc(-c2csc3ncn(CC#N)c(=O)c23)cc1C	3	22%	2.1	-2	0.0	-0.2	-10	-22	5.6	-2
CCOc1ccccc1N1CCN(C(=O)c2cn(CC3CCCCC3)nn2)CC1	-5	x	-2.3	11	0.5	0.3	-6	-11	1.6	-3
O=C(c1ccc(F)cc1)C1CCN(C(=O)NCc2ccccc2)CC1	u	20%	3.9	x	-13	-0.4	8	1	-5.3	-9
O=C(CSc1ccc(Cl)cc1)N1CCN(c2c(Cl)cccc2[N+](=O)[O-])CC1	15	-8%	2.1	47	x	0.1	x	x	x	-9
CN(C)c1ccc(C2CC(=O)OC3=C2C(=O)CC(C)(C)C3)cc1 (stereo not given)	-3	-4%	0.4	-10	-6.5	0.2	-2	-1	-2.0	-1
CCc1ccc(OCCCCN(C)Cc2ccccc2)cc1	-1	x	7.3	55*	-8.0	0.5	-15	-20	-0.3	x
Cn1cc(CC(=O)N2CCN(c3ccccc3F)CC2)c2ccccc21	-1	4%	-0.4	7	0.5	-0.1	-13	-22	-0.1	x
Cc1c(C(=O)NCc2ccco2)oc2ccccc12	-5	x	-1.0	-7	-0.8	0.6	-5	-3	-0.2	-13
O=C(O)CCSc1nnc(SCC(=O)NC2CCS(=O)(=O)C2)s1 (stereo not given)	x	6%	x	x	-1.8	-1.6	5	9	-1.9	-2
C=CCOc1ccc(CN(C)CC(O)COc2ccc(CCC(C)=O)cc2)cc1 (stereo not given)	-5	x	-1.3	38	-0.7	0.7	-2	-6	0.8	-6
COc1cccc(S(=O)(=O)N2CCOCC2)c1	8	5%	-5.8	-9	x	0.6	x	x	x	-5
NS(=O)(=O)c1ccc(C(=O)Nc2ccc(-c3nc4cccnc4s3)cc2)cc1	-1	-3%	2.8	-3	-5.1	-0.4	7	1	-6.0	-3
Cc1sc2ncnc(SCC(=O)NNC(=O)COc3cccc4ccccc34)c2c1C	-14	0%	-2.3	-17	x	-0.1	x	x	x	2
NC(=O)c1ccc(NC(=O)CCN=C2NS(=O)(=O)c3ccccc32)cc1	-16	-2%	-3.6	-6	-0.8	1.2	1	3	-2.1	-7
CC(C)C(=O)Nc1nnc(SCC(=O)NCc2cccs2)s1	1	-2%	-0.1	-2	x	1.4	x	x	x	-6
CCCCOc1ccc(C(=O)NCC(=O)NCC2CCCO2)cc1 (stereo not given)	1	3%	-1.9	2	-3.2	-0.5	9	7	3.5	3
CC12CC3(C)CC(C)(C1)CC(C(=O)NC(=S)N1CCCC1)(C2)C3	14	-6%	-0.3	7	-1.2	1.0	14	13	1.2	x
Cc1ccc(S(=O)(=O)N2CCN(C(=O)CCC(=O)NCCc3ccc(S(N)(=O)=O)cc3)CC2)c(C)c1	7	-7%	-3.1	-5	-7.1	-0.1	-1	-9	-5.9	1
O=C(Nc1cc(Br)c(O)c(Br)c1)c1cccc(NC(=O)c2ccco2)c1	7	x	2.6	-3	-3.3	0.6	-41	-62	-6.3	3
Cc1ccccc1NC(=O)c1ccc(OCC(=O)Nc2ccccc2F)cc1	-6	-1%	-0.1	-2	-1.3	2.8	8	5	0.8	-7
Cc1cc(=O)oc2cc(NC(=S)NCc3cccnc3)ccc12	10	5%	3.2	-5	-0.5	1.4	-28	-27	-3.9	12
O=C(CSc1nccc(=O)[nH]1)Nc1ccccc1Sc1ccccc1	56	-7%	3.0	-10	-2.6	3.2	-36	-62	-7.8	-1
COc1ccccc1NS(=O)(=O)c1cc(C(=O)NCC(c2ccco2)N2CCCCC2)ccc1C (stereo not given)	-3	0%	-2.5	15	-9.7	2.5	0	-13	-1.2	4
CCOc1cnc(C(=O)NNC(=O)c2ccccc2Br)o1	-4	1%	3.3	-24	-1.6	0.1	16	18	1.0	0

2 records picked at random from the list so far:
SMILES	Calb FLC	Vif TR-FRET	RanGTP-Impb inh	T cruzi inh	AF4-AF9 inh	A1 inh	Ecoli rRNA inh	Ecoli rRNA inh OD600	Ecoli rRNA inh RFP	Beta cell apopt
COc1ccccc1NS(=O)(=O)c1cc(C(=O)NCC(c2ccco2)N2CCCCC2)ccc1C (stereo not given)	-3	0%	-2.5	15	-9.7	2.5	0	-13	-1.2	4
CC12CC3(C)CC(C)(C1)CC(C(=O)NC(=S)N1CCCC1)(C2)C3	14	-6%	-0.3	7	-1.2	1.0	14	13	1.2	x
